Screens (PubChem BioAssay)
MT1-MMP act inh – MT1-MMP (human) activation inhibition; P50281; GFP/RFP ratio change, % at 20 µM; HT1080 RFP-PRO-GFP cells, GFP/RFP ratio fluorescence, overnight; percent of plate control window, DMSO zero; 0.061% of 360,000 active;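 active means GFP/RFP ratio change of at least 30% with cell ATP level not reduced by more than half and red fluorescence within 50% of control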; further: strong numbers were not always called active
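system = RFP-PRO-GFP reporter HT1080 cells | dosing = 20 µM single dose, 1% DMSO | timing = overnight cell settling, then overnight compound exposure, 37 °C, 5% CO2 | read-out basis = GFP/RFP fluorescence ratio | controls = DMSO and RFP-L50D-GFP cell wells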
Yeast UUG start – yeast start codon fidelity modulation | AID 602363 | S. cerevisiae UUG-firefly luciferase reporter, luminescence/redox ratio | 0.13% of 350,000 active | activity score, % at 18.7 µM;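 active means replicate mean at a twofold rise or more, about +100% in these data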;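 further: firefly luciferase made from a UUG start codon reports start codon fidelity; reporter light over untreated wells divided by growth signal over untreated wells; some hits fall short of that in this replicate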
CSC inhib – cancer stem cell inhibition; cancer stem cell-like cells viability, luminescence; inhibition, % at 7.5 µM; 1.1% of 300,000 active;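 active means mean at 75% or more and at least half the replicates too; inconclusive means mean and replicates disagree; tested in HMLE shEcad cells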;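 further: 0% = median of negative and 100% = median of positive control wells; the first replicate is given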
PABP polyA inh – PABP-poly(A) binding inhibition; PABP-poly(A) RNA binding, fluorescence polarization; inhibition, % at 35 µM; 1% of 290,000 active; AID 2014;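 active means 50% or more with normal probe brightness, or confirmed in later tests; inconclusive means above 50% with abnormal brightness, or retests that disagree; inactive means below 50% or failed in later tests; about a fifth of its hits are not listed in these tables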;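 further: calls also rest on retests at 20 µM and on dose response follow-up; controls were probe without protein and protein plus probe with vehicle; some compounds called inactive have numbers as strong as hits; many hits fall short of the cut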
Target sequence (P11940 whole entry, looked up): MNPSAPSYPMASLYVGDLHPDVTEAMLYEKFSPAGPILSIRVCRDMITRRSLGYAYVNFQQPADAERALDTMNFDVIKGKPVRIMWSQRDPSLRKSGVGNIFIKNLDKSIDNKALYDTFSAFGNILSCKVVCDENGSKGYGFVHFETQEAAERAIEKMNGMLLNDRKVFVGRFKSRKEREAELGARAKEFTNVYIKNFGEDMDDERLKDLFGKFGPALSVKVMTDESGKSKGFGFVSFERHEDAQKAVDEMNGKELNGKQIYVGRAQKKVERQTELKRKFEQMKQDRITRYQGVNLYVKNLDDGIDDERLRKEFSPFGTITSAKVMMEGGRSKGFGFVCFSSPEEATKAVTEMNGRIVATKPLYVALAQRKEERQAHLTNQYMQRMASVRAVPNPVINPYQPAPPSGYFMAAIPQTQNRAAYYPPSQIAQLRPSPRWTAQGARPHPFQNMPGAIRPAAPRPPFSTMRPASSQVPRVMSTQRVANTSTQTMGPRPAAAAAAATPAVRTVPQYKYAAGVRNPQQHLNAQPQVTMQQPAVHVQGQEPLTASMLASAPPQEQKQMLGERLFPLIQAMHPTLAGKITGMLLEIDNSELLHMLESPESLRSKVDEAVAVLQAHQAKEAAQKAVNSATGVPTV
HIV Env fusion – blocks HIV Env-driven cell-cell fusion; HeLa-JRFL Env/CEM21 cell fusion, luciferase; inhibition, % at 12.3 µM; 1.1% of 360,000 active; AID 651610;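 active means mean replicate inhibition score of at least 50 and every replicate individually at or above 50; inconclusive means only one of the two criteria met; inactive means mean below 50 and not all replicates reaching 50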;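 further: 0% = plate neutral controls and 100% = maraviroc near 300 nM; one replicate is shown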
Rce1 inhib – yeast Ras-converting enzyme inhibition; Q03530; yeast membranes, quenched prenylated peptide cleavage fluorescence; calls only; 0.27% of 290,000 active; AID 2563;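 active means fall in fluorescence gain of 50% or more versus controls, with final raw signal at or below 3038400; inconclusive means same 50% fall but final raw signal above 3038400; inactive means fall in fluorescence gain under 50%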;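 further: plate controls were neutral control wells for no effect and wells lacking membranes for full effect; tested at 10 µM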
Target sequence (Q03530 whole entry, looked up): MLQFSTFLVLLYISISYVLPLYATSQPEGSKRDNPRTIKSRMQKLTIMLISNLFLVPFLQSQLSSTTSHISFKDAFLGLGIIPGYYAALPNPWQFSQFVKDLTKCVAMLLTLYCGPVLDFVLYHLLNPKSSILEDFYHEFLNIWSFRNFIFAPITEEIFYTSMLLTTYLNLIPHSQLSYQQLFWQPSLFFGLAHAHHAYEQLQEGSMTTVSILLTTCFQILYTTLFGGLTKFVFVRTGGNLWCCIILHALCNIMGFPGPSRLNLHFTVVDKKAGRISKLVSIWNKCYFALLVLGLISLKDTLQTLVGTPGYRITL
eIF4H FP inh – inhibitors of RNA binding by human eIF4H; eIF4H fluorescence polarization binding assay; inhibition, % at 35 µM; Q15056; 0.94% of 290,000 active;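 active means 50% or more with normal probe brightness, or confirmed in later tests; inconclusive means above 50% with abnormal brightness, or retests that disagree; inactive means below 50% or failed in later tests; about a fifth of its hits are not listed in these tables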;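 further: calls also rest on retests at 20 µM and on dose response follow-up; 0% = protein and probe with vehicle and 100% = probe without protein; strong numbers were not always called active; many hits fall short of the cut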
eIF4H FP inh retest – second read-out of eIF4H FP inh, no call of its own (marks repeat the call); inhibition, %; compound at 20 µM; confirmation average;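 mean of two retest wells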
PABP polyA inh retest – second read-out of PABP polyA inh, no call of its own (marks repeat the call); inhibition, %; compound at 20 µM; confirmation repeats;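 mean of two retest wells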
MT1-MMP act inh RFP – second read-out of MT1-MMP act inh, no call of its own (marks repeat the call); RFP signal change, %; measured here: RFP expression control read;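 0 = vehicle wells; hits needed this value within 50% of zero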
The depositor's hits bear a star; i = inactive; ? = inconclusive; nt = no result given; + = active, no number. Hits appear at their usual frequency, and some 2.9% of all compounds hit somewhere here.

SMILES | MT1-MMP act inh | MT1-MMP act inh RFP | Yeast UUG start | CSC inhib | PABP polyA inh | HIV Env fusion | Rce1 inhib | eIF4H FP inh | others
Cc1cccc(OCc2n[nH]c(=S)o2)c1C | -4 | 0 | nt | 6 | 2 | -4 | nt | 3
CCc1ccccc1NC(=O)C1CCCN1S(=O)(=O)c1ccc2c(c1)n(C)c(=O)c(=O)n2C (stereo not given) | -2 | 7 | -5 | -8 | 3 | 12 | i | -2
COc1ccccc1C(=O)COC(=O)COc1cccc2c1OC(C)(C)C2 | 0 | 2 | -2 | 3 | -4 | nt | i | -14
O=C1Nc2cc(C(=O)N3CCOCC3)ccc2S/C1=C/c1ccccc1F | -4 | -12 | 0 | nt | nt | 3 | nt | nt
COc1ccc(C(=O)NCCCCc2ccccc2)cc1 | -1 | -1 | 3 | -1 | nt | 18 | i | nt
Cc1csc2nc(CCNS(=O)(=O)c3ccc4c(c3)OCCO4)cn12 | -2 | 1 | -11 | 0 | 19 | 20 | i | 7
O=C(NCCn1ccc2ccccc21)c1ccc2c(c1)OCO2 | 0 | 1 | -31 | 12 | 2 | -60 | i | 2
Cn1c(-c2ccc(F)cc2)cnc1NCc1cccc([N+](=O)[O-])c1 | 1 | 1 | -15 | -11 | 4 | -5 | i | 2
O=C(NNC(=O)C1CC=CCC1)c1cccc(Br)c1 (stereo not given) | 0 | 3 | 4 | 0 | nt | -1 | i | nt
COc1ccccc1COCC(O)CN1CCN(S(=O)(=O)c2cccc(F)c2)CC1 (stereo not given) | 2 | 3 | -8 | -14 | nt | 7 | nt | nt
Cn1c(=O)cc(OCC(=O)N2CCN(c3cccc(C(F)(F)F)c3)CC2)c2ccccc21 | 3 | 1 | -10 | nt | 2 | -31 | i | 5
Cc1nn(-c2ccccc2)c(N)c1C1(O)C(=O)N(C)c2ccccc21 (stereo not given) | -1 | 3 | nt | -3 | -3 | -37 | i | -9
CN=C(Nc1ccccc1)SC1CC(=O)N(c2cccc(OC)c2)C1=O (stereo not given) | 6 | 4 | -4 | 21 | -5 | 8 | i | 2
COc1ccc(C(=O)C2CCCN(C(=O)c3cc4nc(C)cc(C)n4n3)C2)cc1F (stereo not given) | -7 | -1 | -3 | -15 | 7 | 6 | i | -1
CCOC(=O)C1=C(C)NC(C)=C(C(=O)OCC)C1C(=O)OCC(=O)c1ccc2c(c1)OCCO2 | 5 | 0 | -7 | -9 | -5 | -27 | i | -1
CCCCN1C(=O)c2ccc(C(=O)Nc3c(N)n(CCCC)c(=O)n(C)c3=O)cc2C1=O | 0 | 2 | -17 | -9 | -8 | nt | i | -2
COc1ccc(NC(=S)NCc2ccco2)c(OC)c1 | -3 | 5 | -13 | -5 | -5 | nt | i | -12
O=C(CCc1nc(-c2ccccc2F)no1)NC1CCCCCC1 | -1 | -7 | 7 | 3 | 7 | nt | i | -5
CC(C)Cn1c(SCC(=O)Nc2ncccn2)nc2ccccc21 | 1 | 1 | nt | 7 | 11 | 8 | i | 4
CNS(=O)(=O)c1ccc(N=Cc2c(C)[nH]n(-c3ccc(C)cc3C)c2=O)cc1 | 1 | 3 | -9 | nt | -11 | 16 | i | -9
CCCn1c(SCc2cc(=O)oc3ccc4ccccc4c23)n[nH]c1=O | -5 | 2 | nt | -11 | 37 | -403 | i | 29
COc1ccc(-c2cn(CCO)nc2-c2ccc(OC)cc2)cc1 | -1 | 3 | -11 | -10 | -1 | 9 | i | -3
O=C(NC1CCCc2ccccc21)c1cccc(S(=O)(=O)N2CCN(c3ccccc3)CC2)c1 (stereo not given) | 9 | -8 | 2 | 21 | -6 | -57 | i | 5
N#CC1C(C#N)N2CCCN2C1c1ccc(Cl)cc1 (stereo not given) | -7 | 3 | -12 | -9 | 4 | nt | i | -6
C/C(=N\NC(=S)NC1CCCCC1)c1c(F)cccc1F | -1 | -18 | -38 | 30 | 9 | 13 | nt | 13
CCOc1ccc(OCCOC(=O)CNC(=O)c2ccc(Cl)cc2Cl)cc1 | 4 | -1 | 10 | -4 | nt | nt | i | nt
Cc1ccccc1Oc1ncccc1C(=O)/C(C#N)=C/N(C)C | 4 | 3 | -14 | -5 | -2 | nt | i | -6
COc1ccc(C2CC(=O)Oc3c(C(CCN4CCN(c5ccccc5)CC4)c4ccc(N(C)C)cc4)c(OC)cc(OC)c32)cc1 (stereo not given) | 12 | -3 | 3 | 7 | -10 | -16 | i | 0
COCC1CCN(Cc2c(C(=O)N3CCOCC3)nc3c(C)cccn23)C1 (stereo not given) | 1 | 7 | -19 | nt | nt | -11 | nt | nt
O=C(CCCN1C(=O)c2ccccc2C1=O)N1CCc2ccccc2C1 | 4 | 4 | -7 | -10 | -1 | -37 | i | -5
COc1cccc(C(C(=O)NC2CCCC2)N(C(=O)c2ccco2)c2ccc(NC(C)=O)cc2)c1OC (stereo not given) | -5 | 5 | -2 | nt | 3 | -5 | i | -5
O=C(COc1ncnc2ccccc12)Nc1ccccc1[N+](=O)[O-] | 4 | 5 | nt | 3 | 4 | -7 | i | 1
CC1CCC2CCCCC2N1C(=O)c1cc([N+](=O)[O-])cc([N+](=O)[O-])c1 (stereo not given) | -6 | -2 | -6 | -1 | -2 | 23 | i | -15
COc1ccc(S(=O)(=O)Nc2ccccc2C)cc1C(=O)N1CCOCC1 | 1 | 6 | nt | -1 | -15 | 3 | i | 2
CCN(CC)CCNC(=O)c1[nH]c2ccc(OCc3ccccc3)cc2c1C | -5 | -7 | nt | 83* | -11 | -6 | + | -9
O/C(=C\c1nc2ccccc2nc1/C=C(\O)c1ccccc1)c1ccccc1 | -43 | 12 | -20 | 38 | -5 | nt | i | 3
CCC(C(=O)NC(C)CCc1ccccc1)n1nc(C)n2c(cc3occc32)c1=O (stereo not given) | -1 | -2 | -8 | -15 | 12 | nt | i | 12
CCOC(=O)N/N=C\c1ccc([N+](=O)[O-])s1 | 1 | -7 | nt | 2 | 26 | 0 | i | 35
Cc1csc(N(C)C(=O)CSc2nnc(COc3cccc4ccccc34)o2)n1 | -9 | -5 | -11 | 26 | 0 | 105* | i | -1
Cc1cc(=O)n2nc(N3CCC(C(=O)NCc4ccco4)CC3)sc2n1 | 0 | 2 | -13 | 4 | -1 | 3 | i | -8
CC(=O)n1c(-c2ccccc2)c(CO)c2ccccc21 | 2 | -5 | -18 | -1 | 2 | 45 | i | -9
CC/C(=N\Nc1ccc([N+](=O)[O-])cc1)c1ccccc1 | -11 | 2 | nt | 40 | 126* | nt | i | 61 | eIF4H FP inh retest=48;PABP polyA inh retest=56*
N#Cc1ccc(Oc2nc(Nc3ccc(F)cc3)nc(N3CCCC3)n2)cc1 | -12 | -16 | -9 | 8 | 4 | 17 | i | 17
CC(=O)Nc1cccc(OCC(=O)NS(=O)(=O)c2ccc(C)cc2)c1 | -1 | 2 | nt | -5 | 16 | nt | i | -6
Cc1cccc(N2CCN(C(=O)c3ccc4nc(-c5ccco5)c(-c5ccco5)nc4c3)CC2C)c1 (stereo not given) | 4 | -11 | -8 | 18 | 79* | ? | i | 93* | eIF4H FP inh retest=87*;PABP polyA inh retest=101*
COc1ccc(S(=O)(=O)N2CCOC23CCN(C(=O)c2ccc(Cl)cc2Cl)CC3)cc1 | -66 | -46 | 17 | -24 | nt | 5 | i | nt
COc1ccc([N+](=O)[O-])cc1NC(=O)C(C)OC(=O)C1c2ccccc2Oc2ccccc21 (stereo not given) | 4 | -2 | nt | 24 | 1 | 11 | i | -10
C=CCn1c2ccccc2c2nnc(SCC(=O)Nc3cc(C)on3)nc21 | 1 | -5 | -7 | -15 | 3 | nt | i | -5
COc1ccccc1NC(=S)NCc1ccc(F)cc1 | 3 | 3 | -23 | -17 | 4 | 2 | i | -4
CN(Cc1ccccc1)S(=O)(=O)c1ccc(OCC(=O)N2CCC(C(N)=O)CC2)cc1 | -1 | -1 | -19 | -5 | 0 | 2 | i | 10

Carrying on.
SMILES | MT1-MMP act inh | MT1-MMP act inh RFP | Yeast UUG start | CSC inhib | PABP polyA inh | HIV Env fusion | Rce1 inhib | eIF4H FP inh | others
NC(=O)c1ccc(NC(=O)COC(=O)c2cc3c(s2)CCC3)cc1 | -1 | 2 | -31 | -12 | nt | nt | nt | nt
CCSc1nnc(SCC(=O)c2c(N)n(C)c(=O)n(C)c2=O)s1 | 8 | -9 | -25 | nt | nt | -15 | nt | nt
Cc1c(O)c(CN2CCCC2)cc2c3c(c(=O)oc12)CCC3 | -13 | 2 | -7 | 11 | 35 | -4 | ? | 17
COc1ccc2c(c1)c(/C=C/c1cc[n+](C)cc1)cn2C | -84 | -10 | -9 | -25 | ? | 10 | i | ?
CCC(=O)N1Cc2ccccc2-c2ccccc2C1=O | nt | nt | nt | -2 | -9 | nt | i | -2
O=C(CSc1n[nH]c(=O)n1C1CC1)Nc1ccc(Cl)c(Cl)c1 | -6 | 1 | -3 | -1 | -1 | -2 | i | -7

Compounds listed so far with fluorine, in the order listed:
SMILES | MT1-MMP act inh | MT1-MMP act inh RFP | Yeast UUG start | CSC inhib | PABP polyA inh | HIV Env fusion | Rce1 inhib | eIF4H FP inh | others
O=C1Nc2cc(C(=O)N3CCOCC3)ccc2S/C1=C/c1ccccc1F | -4 | -12 | 0 | nt | nt | 3 | nt | nt
Cn1c(-c2ccc(F)cc2)cnc1NCc1cccc([N+](=O)[O-])c1 | 1 | 1 | -15 | -11 | 4 | -5 | i | 2
COc1ccccc1COCC(O)CN1CCN(S(=O)(=O)c2cccc(F)c2)CC1 (stereo not given) | 2 | 3 | -8 | -14 | nt | 7 | nt | nt
Cn1c(=O)cc(OCC(=O)N2CCN(c3cccc(C(F)(F)F)c3)CC2)c2ccccc21 | 3 | 1 | -10 | nt | 2 | -31 | i | 5
COc1ccc(C(=O)C2CCCN(C(=O)c3cc4nc(C)cc(C)n4n3)C2)cc1F (stereo not given) | -7 | -1 | -3 | -15 | 7 | 6 | i | -1
O=C(CCc1nc(-c2ccccc2F)no1)NC1CCCCCC1 | -1 | -7 | 7 | 3 | 7 | nt | i | -5
C/C(=N\NC(=S)NC1CCCCC1)c1c(F)cccc1F | -1 | -18 | -38 | 30 | 9 | 13 | nt | 13
N#Cc1ccc(Oc2nc(Nc3ccc(F)cc3)nc(N3CCCC3)n2)cc1 | -12 | -16 | -9 | 8 | 4 | 17 | i | 17
COc1ccccc1NC(=S)NCc1ccc(F)cc1 | 3 | 3 | -23 | -17 | 4 | 2 | i | -4

Ordered by length of the SMILES (descending): some entries from above.
SMILES | MT1-MMP act inh | MT1-MMP act inh RFP | Yeast UUG start | CSC inhib | PABP polyA inh | HIV Env fusion | Rce1 inhib | eIF4H FP inh | others
CCCn1c(SCc2cc(=O)oc3ccc4ccccc4c23)n[nH]c1=O | -5 | 2 | nt | -11 | 37 | -403 | i | 29
O=C(COc1ncnc2ccccc12)Nc1ccccc1[N+](=O)[O-] | 4 | 5 | nt | 3 | 4 | -7 | i | 1
Cc1ccccc1Oc1ncccc1C(=O)/C(C#N)=C/N(C)C | 4 | 3 | -14 | -5 | -2 | nt | i | -6
